# Bioassay records (PubChem)
# NPYLR7 ag = activates Aedes aegypti NPYLR7 receptor | HEK293T NPYLR7/Galpha15, GCaMP6s calcium fluorescence | activation, % at 10 µM | actives 0.15% (n = 270,000) | AID 1259423; in the data active = activation above about 40%;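 also: 0% = vehicle and 100% = reference agonist at the receptor; some compounds past the cut are filed as inactive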
# NPYLR7 ag max-min = further read-out of NPYLR7 ag, marked with its call; activation, %; measured here: Max-Min RFU normalised activation; some inactives read as strong as hits;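 span of the calcium signal over five minutes; 0% = vehicle and 100% = native peptide agonist; compound fluorescence can raise it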
# An asterisk follows results filed as active; & = joins results of further samples. A portion of the library; count on the stated rates, not on these rows.
# Start of the listing, in advance:
SMILES,NPYLR7 ag,NPYLR7 ag max-min
Cc1onc(C(=O)NCc2csc3c2CCCC3)c1CO,-5.4,-8.4
COc1ccc(OC)c(-c2nc(Cn3nc(C)nc3C)c(C)o2)c1,12.8,-4.9

# The list itself, from the first entry:
SMILES,NPYLR7 ag,NPYLR7 ag max-min
Cc1onc(C(=O)NCc2csc3c2CCCC3)c1CO,-5.4,-8.4
COc1ccc(OC)c(-c2nc(Cn3nc(C)nc3C)c(C)o2)c1,12.8,-4.9
Cc1ccc(NC(=O)C2(C)CCN2Cc2cccc3c2OCO3)cc1O (stereo not drawn),6.9,0.6
COc1cccc(NC(C)C(=O)N2CC(C)OC(C)C2)c1 (stereo not drawn),-5.5,-6.2
Nc1cc(-c2cccc(C(F)(F)F)c2)nn1-c1ccc(C(=O)NCCSCc2ccccc2)cc1,-10.3,-18.7
c1ccc2c(c1)CN1CCCC1=N2,1.3&-3.3,-5.6&-9.1
COC(=O)CC1C(=O)NCCN1Cc1nc(-c2cc3c(cc2Cl)OCO3)oc1C (stereo not drawn),-2.7,-4.5
COCCn1c(=S)[nH]c2cc(Cl)ccc21,17.2,16.1
CCCc1nnc(-c2cc3ccccc3n2CC(=O)Nc2ccccc2C)o1,-1.8,-2.5
COc1ccc(OC)c(S(=O)(=O)NCCCn2nc(-c3ccncc3)ccc2=O)c1,25.6,20.4
O=C(NC(Cn1ccnc1)c1ccccc1)c1cccc2ccnn12 (stereo not drawn),-2.6,-4.8
CC1CN(C(=O)C2CCOc3ccccc32)CC(C)S1 (stereo not drawn),0.4,4.0
O=C(c1cncc(N2C[C@H]3CC=CC[C@H]3C2)n1)N1CCOCC1,28.8,14.5
Cc1cccc(N2C(=O)N(c3ccc(Cl)c(Cl)c3)C3CS(=O)(=O)CC32)c1 (stereo not drawn),1.2,-2.5
CC(C)CCNc1nc(Nc2cccc(F)c2)c2cnn(-c3ccccc3)c2n1,1.3,1.7
COCC(=O)NC1CCN(c2ccccc2C(=O)NCCc2cccs2)CC1,-12.0,-2.6
O=C(CN1CSCC1=O)NCc1ccccc1-c1ccc(CN2CCCC2)cc1,-0.6,-3.6
O=C(Nc1ccccc1)O[C@@H]1CO[C@H]2[C@@H]1OC[C@@H]2NC(=O)c1cccs1,-5.6,-14.7
O=C(CSc1nc(=O)n(CC2CCCO2)c2c1CCC2)N1CCc2ccccc21 (stereo not drawn),-5.0,-10.0
COc1ccccc1-n1c(CNC(=O)c2ccco2)nnc1SCC(=O)Nc1nnc(C)s1,5.0,8.4
COc1cccc(-n2nc(C(=O)NCc3ccccc3)c(=O)n(Cc3ccccc3)c2=O)c1,12.7,15.3
O=C(O)c1ccc(N2CC(c3ccncc3)C2)nc1,4.9,5.1
CCOC(=O)Cn1c(=O)c2c(nc3n(CC4CCCO4)c(C)c(C)n23)n(C)c1=O (stereo not drawn),1.4,5.5
CCOC(=O)N1CCN(CC(=O)N2N=C(c3ccccc3OC)CC2c2ccc(OC)cc2)CC1 (stereo not drawn),0.7,8.4
Cc1ccc(-n2[nH]c(-c3ccccc3)c(-c3ccc(N)cc3)c2=O)c(C)c1,2.9,5.0
COc1cc(C(=O)N2CCCC(c3n[nH]c(=O)n3-c3ccccc3)C2)ccn1 (stereo not drawn),3.8,2.9
c1cc(-c2nccc3occc23)c2cc[nH]c2c1,9.3,7.9
O=C1c2ccccc2-c2ncnc3c(Br)cc(Br)c1c23,-13.8,-19.0
CCCNC(=O)C(NC(=O)c1ccc2c(c1)OCO2)C1CCN(C(=O)NC(C)C)CC1 (stereo not drawn),-5.9,0.1
Cc1ccc(Sc2ncccc2C(=O)N2CCCCC2C(N)=O)cc1 (stereo not drawn),8.7,11.0
Cc1cccc(-c2ncc(C3CC(=O)Nc4c3c(C)nn4C(C)C)cn2)c1 (stereo not drawn),4.8,12.8
CS(=O)(=O)NC1CCCN(C(=O)/C=C/c2cccc(C#N)c2)C1 (stereo not drawn),13.0,10.0
O/N=C1\C(=C/c2ccco2)N2CCC1CC2,-2.8,-3.4
CCc1nc2ccc(C(=O)N(C)CCN(C)C)cn2c1N(C)Cc1ccc(OC)cc1,-11.3,-9.7
Cc1c(C)n2c3c(=O)n(Cc4ccc(F)cc4)c(=O)n(C)c3nc2n1C(C)C,12.5,11.2
Cc1cc(CSCc2cccc(F)c2)no1,4.2,3.4
N#Cc1ccc(Cn2cnc3ccccc32)c(F)c1,-1.3,-4.7
COc1ccc(OC)c(S(=O)(=O)NC(=O)C2(C)CCN2C(=O)Cc2cc(F)ccc2F)c1 (stereo not drawn),3.9,1.4
CC1(C(=O)NS(=O)(=O)c2ccc(Cl)s2)CCN1C(=O)C1CCCCC1 (stereo not drawn),4.6,4.5
Cc1cc(C)cc(-n2ccnc(NCC(C)c3ccccc3)c2=O)c1 (stereo not drawn),2.4,-6.3
O=C(c1cn(-c2ccccc2)nc1-c1ccc(Cl)cc1)N1CC[C@H](O)[C@@H](O)C1,4.4,0.7
Cc1ccsc1[C@@H]1CCN(Cc2ccncc2F)C[C@H]1O,13.0,9.4
CC(c1ccccc1)N(Cc1cc(NC(=O)c2cccc(F)c2)ccc1N(C)C)C(=O)c1ccccc1Cl (stereo not drawn),-12.1,-2.5
CCOC(=O)c1cc(-c2cccc(NC(=O)c3csc4ccccc34)c2)n(-c2cccc(C)c2)n1,-6.7,-7.8
Cc1c(C(=O)N2CCN(C(=O)Nc3cccc(C(F)(F)F)c3)CC2)cc(-c2ccc(F)cc2)n1-c1ccccc1,-4.7,3.6
CN1CCC=C(CNC(=O)C2(c3ccc(Cl)cc3)CCCC2)C1,2.1,13.5
COc1cc2c(cc1OC)C(c1ccc(F)cc1)N(C(C)=O)CC2 (stereo not drawn),7.3,8.2
CN1C(=O)NC(c2ccccc2Cl)C2=C1CN(CC(=O)NCc1ccc(F)cc1)C2=O (stereo not drawn),-1.3,11.1
CC(C)Oc1ccc(OCCN[C@H]2CCCCNC2=O)cc1,4.3,2.0
Cc1[nH]n(-c2ccccc2)c(=O)c1N=Nc1ccccc1C(=O)NCc1ccccc1,-2.3,-7.5
O=C(CN1C(=O)C(Oc2ccccc2)C1c1ccccc1)NCc1ccccc1Cl (stereo not drawn),0.9,4.0
COc1ccc(OC)c(-c2cccc(-c3cccc(NC(=O)C4=COc5ccc(Cl)cc5C4)c3)n2)c1,-5.5,-4.4
CCCNC(=O)N1CCN(c2cc(OC)ccc2OC)C(=O)C1C (stereo not drawn),-2.3,2.6
COc1ccc(OC(=O)c2cccc(Br)c2)cc1,0.7,-0.1
CCc1cc(Oc2ccc(Cl)cc2)nc(SCc2cccc(C(F)(F)F)c2)n1,16.7,9.5
O=c1cc(CC2CNCCO2)nc2nc(-c3ccccc3Cl)[nH]n12 (stereo not drawn),1.8,-2.1
CCCCCCNC(=O)CCCCSc1nnc(-c2ccccc2)n1-c1ccc(Cl)c(Cl)c1,2.5,18.0
CCOc1ccc(-n2c(=O)[nH]c3c(C(N)=O)nc(-c4ccccc4)nc32)cc1,-3.3,-4.6
COCCNc1oc2c(c1-c1ccccc1)c(=O)oc1c(C)cccc12,-3.1,-5.6
CS(=O)(=O)NC1CCN(Cc2sc3ccccc3c2Cl)CC1,5.9,2.5

# Some of the entries so far, with two lines to a compound:
# Every second line gives: NPYLR7 ag	NPYLR7 ag max-min
- Cc1cc(C)cc(-n2ccnc(NCC(C)c3ccccc3)c2=O)c1 (stereo not drawn)
  2.4	-6.3
- O=C(c1cn(-c2ccccc2)nc1-c1ccc(Cl)cc1)N1CC[C@H](O)[C@@H](O)C1
  4.4	0.7
- Cc1ccsc1[C@@H]1CCN(Cc2ccncc2F)C[C@H]1O
  13.0	9.4
- CC(c1ccccc1)N(Cc1cc(NC(=O)c2cccc(F)c2)ccc1N(C)C)C(=O)c1ccccc1Cl (stereo not drawn)
  -12.1	-2.5
- CCOC(=O)c1cc(-c2cccc(NC(=O)c3csc4ccccc34)c2)n(-c2cccc(C)c2)n1
  -6.7	-7.8
- Cc1c(C(=O)N2CCN(C(=O)Nc3cccc(C(F)(F)F)c3)CC2)cc(-c2ccc(F)cc2)n1-c1ccccc1
  -4.7	3.6
- CN1CCC=C(CNC(=O)C2(c3ccc(Cl)cc3)CCCC2)C1
  2.1	13.5
- COc1cc2c(cc1OC)C(c1ccc(F)cc1)N(C(C)=O)CC2 (stereo not drawn)
  7.3	8.2
- CN1C(=O)NC(c2ccccc2Cl)C2=C1CN(CC(=O)NCc1ccc(F)cc1)C2=O (stereo not drawn)
  -1.3	11.1
- CC(C)Oc1ccc(OCCN[C@H]2CCCCNC2=O)cc1
  4.3	2.0
- Cc1[nH]n(-c2ccccc2)c(=O)c1N=Nc1ccccc1C(=O)NCc1ccccc1
  -2.3	-7.5
- O=C(CN1C(=O)C(Oc2ccccc2)C1c1ccccc1)NCc1ccccc1Cl (stereo not drawn)
  0.9	4.0
- COc1ccc(OC)c(-c2cccc(-c3cccc(NC(=O)C4=COc5ccc(Cl)cc5C4)c3)n2)c1
  -5.5	-4.4
- CCCNC(=O)N1CCN(c2cc(OC)ccc2OC)C(=O)C1C (stereo not drawn)
  -2.3	2.6
- COc1ccc(OC(=O)c2cccc(Br)c2)cc1
  0.7	-0.1
- CCc1cc(Oc2ccc(Cl)cc2)nc(SCc2cccc(C(F)(F)F)c2)n1
  16.7	9.5
- O=c1cc(CC2CNCCO2)nc2nc(-c3ccccc3Cl)[nH]n12 (stereo not drawn)
  1.8	-2.1
- CCCCCCNC(=O)CCCCSc1nnc(-c2ccccc2)n1-c1ccc(Cl)c(Cl)c1
  2.5	18.0
- CCOc1ccc(-n2c(=O)[nH]c3c(C(N)=O)nc(-c4ccccc4)nc32)cc1
  -3.3	-4.6
- COCCNc1oc2c(c1-c1ccccc1)c(=O)oc1c(C)cccc12
  -3.1	-5.6
- CS(=O)(=O)NC1CCN(Cc2sc3ccccc3c2Cl)CC1
  5.9	2.5

# (further entries)
SMILES,NPYLR7 ag,NPYLR7 ag max-min
CC1(C(=O)NS(=O)(=O)c2cccc3cccnc23)CCN1C(=O)C/C=C/c1ccccc1 (stereo not drawn),0.1,-0.8
O=C(NS(=O)(=O)Cc1ccon1)c1ccc(Cl)s1,-14.5,-20.0
CCn1cc(CN2CCCC(OCc3cccnc3)C2)cn1 (stereo not drawn),-3.7,-4.3
C=CCN1C(=O)c2[nH]nc(-c3cc(C)c(C)cc3O)c2C1c1ccccc1F (stereo not drawn),0.3,-0.4
COCCN(CCOC)C(=O)NCCc1ccccc1,-2.8,-9.9
CCN(CC)c1onc(-c2ccc(F)cc2)c1CN(CCN(C)C)C(=O)C1CCCC1,9.2,10.6
Cn1cc(C(=O)O)c(-c2ccc(NS(=O)(=O)c3cccc(F)c3)cc2)n1,0.4,15.3
CC(C)(C)c1cc(NC(=O)c2cc(F)cc(C(F)(F)F)c2)n(-c2ccc(Br)cc2)n1,20.5,8.8
CC1(C(=O)NS(=O)(=O)Cc2ccccc2)CCN1C(=O)C1(c2ccc(Cl)cc2)CCC1 (stereo not drawn),1.3,1.1
O=S1(=O)CCN2C(=N1)Sc1cc(F)c(F)c(F)c12,1.4,10.4
CC(C)COc1nc(-c2ccc3c(c2)OCO3)n(-c2ccc(NC(=O)/C=C/c3ccc([N+](=O)[O-])cc3)cc2)n1,16.9,23.2
Cc1cccc(NC(=Nc2nc(C)cc(C)n2)NC(=O)c2ccccc2)c1,-2.8,-6.6
CC(=O)Nc1ccc(OC(C)=O)cc1,-5.0,-9.1
COc1ccc(-c2cc(N)n(C3CCS(=O)(=O)C3)n2)cc1 (stereo not drawn),6.3,4.1
CC(C1CC1)N(C)C(=O)C1CC(c2ccc(Cl)cc2Cl)=NO1 (stereo not drawn),-7.8,-8.6
O=C(O)CC(C(=O)O)P(=O)(c1ccccc1)c1ccccc1 (stereo not drawn),-0.4,28.5
CC(C)c1cc(Oc2ccccc2Cl)nc(SCc2cccc(C#N)c2)n1,1.5,4.0
CCOC(=O)c1cc(C2CC2)n(-c2ccc(C(=O)NCCc3cccs3)cc2)n1,1.8,2.2
N#CC1C(=N)Oc2cc(N)ccc2C12C(=O)Nc1ccccc12 (stereo not drawn),1.6,-0.4
CCC(C)NC(=O)c1cc(NC(=O)c2ccc([N+](=O)[O-])cc2)ccc1N1CCCCC1 (stereo not drawn),3.9,16.2
COc1ccc2oc(=O)c(-c3csc(NNc4ccccc4)n3)cc2c1,1.1,-2.2
COCCOC(=NC1CC1)NC(=O)c1ccccc1F,8.6,14.3
CCOC(=O)c1nn(-c2cccc(Br)c2)c(=O)cc1OCC(=O)NCc1ccccc1,7.9,6.3
COc1ccccc1Oc1nc2ccccn2c(=O)c1/C=C(\C#N)c1nc2ccccc2s1,64.6*,76.9*
CCCCn1c(N)c(N(CCC)C(=O)CCCSc2nnc(C)s2)c(=O)[nH]c1=O,6.2,0.4
Cc1cc(C2=NNC(=NC(C)(C)C)SC2)c(C)n1C(C)C,9.7,8.4
O=C(/C=C/c1ccc2c(c1)CCO2)NCC(=O)Nc1cn[nH]c1,2.6,1.7
COc1ccc(CCn2c(-c3c(C)cccc3C)nc3ccc(Cl)cc3c2=O)cc1,5.0,3.4
